Assay outcomes: PubChem BioAssay, National Center for Advancing Translational Sciences (NCATS)
VACV mCherry inh – vaccinia inhibition (mCherry reporter). Vaccinia virus mCherry reporter infection, fluorescence; about a quarter of the inactives have no number. Potency, µM (top dose mostly 36.5 µM), for the others: at the top dose activity change, negative = inhibition, most hits filed as inhibitors. 310,000 compounds, 0.63% hits; active = well fitted inhibition curve with a large enough effect; inconclusive = small, poorly fitted or top-dose-only effect; inactive = no such curve, though single readings can be large or run the other way; tested in A549 cells; also: nearly all actives have a fitted effect of over 35% in size; inactives centre near -10
VACV Venus inh – inhibitors of vaccinia virus (Venus reporter) | 330,000 compounds, 0.46% hits | AID 720580 | Vaccinia virus Venus reporter expression, fluorescence | Potency, µM (doses to about 36.5 µM), for the others: at the highest dose activity change, negative = inhibition, actives largely listed as inhibitors; active means well fitted inhibition curve with a large enough effect; inconclusive means small, poorly fitted or top-dose-only effect; inactive means no such curve, though single readings can be large or run the other way; tested in A549 cells; also: nearly all actives have a fitted effect of over 30% in size; inactives centre near -10
* = called active by the depositor; i = inactive; u = inconclusive; x = no result given; & = joins results of further samples; [ ] = another dose, or the depositor's remark. % is scaled to controls: 0 for no effect and ±100 for the full control effect; potency is read from the fitted curve at half-maximal effect.

mol | VACV mCherry inh | VACV Venus inh
c1n[nH]c(SCCCCSc2ncn[nH]2)n1 | x | -8%
Cc1ccc2c(CN(Cc3ccccc3)Cc3ccccc3)cc(=O)oc2c1 | i | -6%
CCCn1cc(S(=O)(=O)c2ccc(C)c(C)c2)c(=O)c2cc(F)c(N3CCC(C)CC3)cc21 | -6% | -16%
Cc1ccc2sc(N(CCCN(C)C)C(=O)c3nc4ccccc4s3)nc2c1C | u | -16%
COC(=O)c1ccc(NC(=O)N2CCCC(C(=O)c3ccccc3OC)C2)cc1 (stereo not given) | -23% | -13%
CCCn1c(SCC(=O)NCc2ccccc2)nnc1-c1ccncc1 | -17% | -3%
CC(C)Oc1ccc(C(=O)NCC(c2ccc(N(C)C)cc2)N2CCc3ccccc32)cc1 (stereo not given) | 5% | -10%
CCC(C(=O)NCc1ccccc1OC)n1nc(C)n2c(cc3sccc32)c1=O (stereo not given) | -9% | -8%
CCc1ccc(NC(=O)CCNS(=O)(=O)c2ccc3c(c2)CCCC(=O)N3)cc1 | -14% | 5%
CC(C)CC(C(=O)O)C(C)CC(=O)Nc1ccn(-c2ccccc2)n1 (stereo not given) | x | -6%
NC(N)=NCCC[C@H](NC(=O)OCc1ccccc1)C(=O)O | -5% | -3%
COc1ccc([N+](=O)[O-])cc1NC(=S)Nc1ccccc1 | x | -12%
CC(=O)NCC1(c2ccccc2)CCN(CCCC(=O)c2ccc(F)cc2)CC1 | i | -7%
COc1cccc(NC(=O)CN2C(=O)NC(C)(CCC(C)C)C2=O)c1 (stereo not given) | i | -16%
CCOC(=O)C1CCN(C(=O)c2nn(-c3ccc(OC)cc3)c(=O)c3c2c2ccccc2n3C)CC1 | -6% | 0%
C=C(C)C1CC=C(C(=O)O)CC1 (stereo not given) | -2% | -9%
CN(Cc1ccccc1)C(=O)c1csc([C@@H]2C[C@H](O)[C@@H](CO)O2)n1 | 22% | -3%
COc1cc(F)ccc1-c1csc(C(O)c2ccc(F)c(F)c2)n1 (stereo not given) | i | 2%
CCc1nn(C)c(-c2n[nH]c(=S)n2N)c1Cl | x | -12%
COC1=C(Nc2ccc(O)cc2)C(=O)c2ccccc2C1=O | 14µM* | 16µM*
O=C(CSc1nnc(CNC(=O)c2cccs2)o1)NCc1ccc(F)cc1 | i | -11%
OC(c1ccccc1)(c1ccc(Cl)cc1)C1CN2CCC1CC2 (stereo not given) | -3% | u
CC(C)(C)c1ccc(COC(=O)CN2C(=O)NC3(CCCC3)C2=O)cc1 | i | -9%
CCN(CC)c1ccc(NC(=O)Cn2cc3c(n2)CCCC3)c(C)c1 | -4% | -10%
Cc1ccc(OCC(=O)N(Cc2ccccc2)C(C)(C)C)c([N+](=O)[O-])n1 | -17% | -13%
COc1ccccc1CN1CC(C(=O)NC2CCOCC2)CCC1=O (stereo not given) | -5% | -13%
CC(=O)Nc1ccc(NC(=O)Nc2ccc(C)c(C)c2)cc1 | -11% | -5%
O=C(Nc1ccc(NC(=O)c2cc3ccccc3o2)cc1)c1ccc2c(c1)OCCO2 | 8% | -7%
COc1cccc(C(=O)NCCS(=O)(=O)NCc2ccco2)c1 | -20% | 3%
CC(=O)Nc1ccc(S(=O)(=O)N(C)c2ccc(OCC(=O)Nc3ccccc3C(C)=O)cc2)cc1 | -4% | -13%
COc1cccc(C(=O)Nc2c(C(=O)N3CCN(c4ccc(F)cc4)CC3)oc3ccccc23)c1 | -5% | -4%
Cc1nn(Cc2ccccc2)c(Cl)c1C(=O)OCC(=O)Nc1cccc2ccccc12 | i | -1%
CC(C)Oc1ccc(CNC(=O)c2ccc(CS(=O)Cc3ccccc3Cl)o2)cc1 (stereo not given) | -15% | -6%
CC1Oc2ccccc2C=C1/C=N/NC(=O)c1ccccc1 (stereo not given) | -21% | -5%
CC(C)(C)N(Cc1cc2ccccc2[nH]c1=O)C(=O)c1cccnc1 | -9% | -6%
Cc1ccc(S(=O)(=O)Nc2ccc3c(c2)C(=O)N([C@H](C)CO)C[C@H](C)[C@H](CN(C)C(=O)Nc2cccc4ccccc24)OCCCC[C@@H](C)O3)cc1 | u | -22%
CCN(CC)CCNc1ncnc2c1sc1nc(N3CCCC3)c3c(c12)CC(C)(C)OC3 | u | u
CCOC(=O)C1CCCN(C(=O)CN2C(=O)COc3ccc(C(C)(C)C)cc32)C1 (stereo not given) | -13% | -7%
Cc1ccc(NC(=S)Nc2ccc3nc(-c4ccccn4)c(-c4ccccn4)nc3c2)cc1C | -21% | -8%
Cc1cc(Cn2nc(-c3ccccc3)cc2C(=O)NCc2cccc(Br)c2)on1 | u | -19%
CCN1CCN(CCC(=O)Nc2ccc3c(c2)OCO3)CC1 | x | -7%
COc1cc(/C=C(\C#N)C(N)=O)ccc1OS(=O)(=O)c1ccc(C)cc1 | i | -21%
Cc1ccc(Nc2nnc(-c3ccc(C)c(S(=O)(=O)N4CCCCC4)c3)c3ccccc23)cc1 | -22% | -10%
COc1ccc(/C=N/N2CCOCC2)cc1O | -8% | -1%
CCN(CC(=O)NCc1cccs1)C(=O)c1ccccc1Cl | i | -9%
N#Cc1ccccc1OCC(=O)N1CCc2ccccc2C1 | i | -12%
Cc1cccc(C(OC(=O)c2ccco2)C(=O)NCc2ccccc2)n1 (stereo not given) | -13% | -3%
CCCc1cc(=O)oc2cc(OCC(=O)NCCc3c[nH]c4ccccc34)ccc12 | u | u
COC(=O)c1ccc(COC(=O)C2CCN(S(=O)(=O)c3c(C)cc(C)cc3C)CC2)o1 | u | -4%
CCCCOc1ccc(/C(N)=N/O)cc1 | -7% | -2%

An excerpt from above in order of count of non-hydrogen atoms, ascending:
mol | VACV mCherry inh | VACV Venus inh
CCCCOc1ccc(/C(N)=N/O)cc1 | -7% | -2%
COc1ccc(/C=N/N2CCOCC2)cc1O | -8% | -1%
CCN1CCN(CCC(=O)Nc2ccc3c(c2)OCO3)CC1 | x | -7%
COc1cc(/C=C(\C#N)C(N)=O)ccc1OS(=O)(=O)c1ccc(C)cc1 | i | -21%
CCCc1cc(=O)oc2cc(OCC(=O)NCCc3c[nH]c4ccccc34)ccc12 | u | u
COC(=O)c1ccc(COC(=O)C2CCN(S(=O)(=O)c3c(C)cc(C)cc3C)CC2)o1 | u | -4%
Cc1ccc(Nc2nnc(-c3ccc(C)c(S(=O)(=O)N4CCCCC4)c3)c3ccccc23)cc1 | -22% | -10%

The results go on:
mol | VACV mCherry inh | VACV Venus inh
O=C(Nc1ccc2oc(-c3cccc4c(Br)cccc34)nc2c1)c1ccc(Br)cc1 | -21% | -28%
CN1C(=O)C(=Cc2ccc(Sc3ccccc3)o2)C(=O)N(C)C1=S | -6% | 7%
COC(=O)c1ccccc1NC(=O)[C@@H]1CCC(=O)N1C1OC(=O)c2c1ccc(OC)c2OC (stereo not given in full) | -1% | 14%
CCOC(=O)C1(N(CC)CC)Sc2cc(C)ccc2NC1=O (stereo not given) | u | u
Cc1ccc(-n2c(C)cc(/C=N/NC(=O)c3ccncc3)c2C)cc1C | -20% | -10%
S=C(Nc1ccc2nsnc2c1)NC1CCCCC1 | i | -7%
O=C1c2cccc3cccc(c23)C(=O)N1CCO | -14% | 1%
COc1cc(Cl)c(C)cc1NC(=O)c1cn(CC(C)C)c(=O)c2cc(OC)c(OC)cc12 | -12% | 1%
COC(=O)C1CCN(c2c([N+](=O)[O-])cc(C(F)(F)F)cc2[N+](=O)[O-])CC1 | i | -14%
CC(=O)Nc1nc(C)c(C(C)C)s1 | -10% | -10%
O=C(CSc1nc2c([nH]c3ccccc32)c(=O)n1-c1ccc(F)cc1)N1CCc2ccccc21 | -2% | -2%
CCN(CC)C(=O)c1[nH]cnc1C(=O)Nc1ccc(OC)cc1 | -8% | -15%
CC1CCCN(C(=O)CCS(=O)(=O)c2cc3c(cc2Cl)NC(=O)CO3)C1 (stereo not given) | -5% | -10%&7%
Cc1ccc(Nc2nc3ccccc3nc2-n2nc(C)cc2C)cc1 | -1% | -6%
Cc1csc(-c2cnn(-c3ccccc3)c2NC(=O)c2ccc(C(F)(F)F)cc2)n1 | i[1.46 µM] | -15%
COc1ccc(CNC(=O)C2CCCN(S(=O)(=O)N(C)c3ccc(F)cc3)C2)cc1OC (stereo not given) | -27% | u
Cc1ccc(/C=N/NC(=O)c2cccs2)o1 | -13% | -9%
O=C(NCc1ccco1)c1cc(-c2ccccn2)nc2ccccc12 | i | -6%
NCCNC(=O)c1ncsc1-c1cccc(F)c1 | i | -11%
COc1ccc(N(C(=O)c2ccco2)S(=O)(=O)c2cccs2)cc1 | x | 8%
CC1C(=O)N(Cc2cn(CC3CCCCC3)nn2)CCS(=O)(=O)N1Cc1ccc(-c2ccncc2)cc1 (stereo not given) | u | u
COc1ccc(-c2coc3cc(O)ccc3c2=O)c(OC)c1 | i | -29%
O=C(NCCN1CCN(Cc2ccccc2)CC1)c1ccc(CS(=O)(=O)c2ccc(Br)cc2)o1 | -18% | -10%
CN(C)C(=O)c1nnc(Cc2ccc(Cl)cc2)o1 | -12% | 6%
Cc1cccc(NS(=O)(=O)c2ccc3c(c2)[C@H]2C=CC[C@H]2[C@@H](c2ccc(F)cc2)N3)c1 | 1% | -8%
Cc1ccc2oc(-c3ccc(C)c(NC(=O)c4ccc5c(c4)OCCO5)c3)nc2c1 | 1% | 9%
COc1ccc2c(=O)ccoc2c1 | -5% | -8%
COc1ccc(CNC(=O)C(=O)NCC2OCCN2S(=O)(=O)c2ccc(OC)cc2)cc1 (stereo not given) | -26% | -18%
CCc1ccc(S(=O)(=O)c2cnc(SCC(=O)Nc3ccc(OC)cc3OC)[nH]c2=O)cc1 | -4% | -4%
C[C@@H](Nc1nc(Cl)nc2nc[nH]c12)c1ccccc1 | -17% | u
C#CCOCCOCCOCCNc1nc(N2CCN(C(=O)[C@H]([C@@H](C)CC)n3cc(CCC(=O)O)nn3)CC2)nc(N2CCN(C(=O)[C@H](CCCCN)n3cc(CC(C)O)nn3)CC2)n1 (stereo not given in full) | i | -11%
COc1ccc(-n2ncc(C(=O)Nc3ccc(C)cc3Cl)c2C2CCN(C(=O)OC(C)(C)C)CC2)cc1 | -12% | -20%
CCN(Cc1ccccc1)C(=O)CN1C(=O)c2ccccc2S1(=O)=O | -16% | -19%
NC(=O)NCc1ccc(C(=O)OCc2ccncc2)cc1 | -28% | -4%
CC1CCCC(NC(=O)CN2C(=O)NC(Cc3c[nH]c4ccccc34)C2=O)C1C (stereo not given) | -26% | -14%
CC1CCCCN1CCCNc1ccc(C(CC(N)=O)NC(=O)Cc2ccc(Br)cc2)cc1[N+](=O)[O-] (stereo not given) | -4% | -6%
N#CCCN(C(=O)COC(=O)c1ccc(S(=O)(=O)N2CCOCC2)cc1)c1ccccc1 | -1% | -7%
CCN(c1cccc(C)c1)S(=O)(=O)c1cc(Br)cc2c1N(C(C)=O)C(C)C2 (stereo not given) | -13% | 1%
CCOc1ccc(-n2c(CC)nc3c(cnn3-c3ccc(Cl)cc3)c2=O)cc1 | -10% | -9%
COc1cc(/C=N/NC(=O)Cn2cnc3c2c(=O)n(C)c(=O)n3C)cc(OC)c1OC | i | -3%
Nc1nc(CSc2ccccc2)nc(N2CCCCC2)n1 | -1% | -16%
COc1ncnc2c1oc1nc(CC(C)C)c3c(c12)CC(C)(C)OC3 | -8% | -6%
CC(=O)Nc1cccc(C(=O)/C=C/c2ccc(F)cc2)c1 | -22% | -25%
Cc1ccc(C)c(CN2CCC(CNC(=O)Nc3ccc(Cl)cc3)CC2)c1 | i | -13%
C=CCN1C(=O)/C(=N/n2cnnc2)c2ccccc21 | x | -12%
CCn1nnnc1SCC(=O)Nc1nc(C)c(C)s1 | -22% | -15%
CCCNC(=O)Cn1cnc2sc(C(=O)N3CCN(Cc4ccc5c(c4)OCO5)CC3)c(C)c2c1=O | -4% | -9%
CCOC(=O)c1ccc(NS(=O)(=O)c2cc(Br)cc3c2N(C(C)=O)C(C)C3)cc1 (stereo not given) | -7% | -6%
O=c1[nH]c(SCc2ccc(F)cc2Cl)nc2ccccc12 | i | -21%
COc1ccc(C=C2SC(=S)N(CCCN3CCOCC3)C2=O)c(OC)c1 | u | u

Remaining list, next part
mol | VACV mCherry inh | VACV Venus inh
Cc1ccc(NC(=O)CNS(=O)(=O)c2cccs2)cc1F | -14% | -15%
CCN(Cc1ccccc1)C(=O)c1cccnc1 | -17% | -18%
Cc1cccc(OCCN2CSC(=S)N(C)C2)c1 | -20% | -15%
CCOc1ccccc1NC(=O)CCNS(=O)(=O)c1ccccc1 | i | -11%
C/C(=N\NC(=O)c1ccco1)c1ccc(NC(=O)c2cccs2)cc1 | -2% | -16%
C/C(=C\C(=O)c1ccc(Cl)cc1)Nc1ccc(N2CCOCC2)cc1 | -15% | -2%
O=C(N/N=C/c1cccc(F)c1)c1ccc(Cl)cc1 | -3% | -14%
CCCCNC(=O)Nc1ccccc1C(=O)NCCC | i | -2%
